High-throughput results from PubChem BioAssay.
rRNA inh HTS = inhibits bacterial ribosomal RNA function over humanized ribosomes; E. coli WT GFP vs humanized-ribosome RFP mutants, fluorescence, 24 h; hits give low values; DMSO median 0, no signal -100; GFP signal change (wild-type ribosome), % (test concentration not listed); actives 1.6% (n = 350,000); AID 720706;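 active = significant combined selectivity score with lowered wild-type GFP, culture density cut under 30%, mutant RFP and density less affected; inactive = any of these conditions unmet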; also: one replicate is shown; some compounds called inactive have numbers as strong as hits
A1 inh = inhibitors of the anti-apoptotic protein A1, read as caspase activation; MEF A1-2A-BIM cells, Caspase-Glo 3/7 luminescence, 3 h; percent of clofoctol response, vehicle zero; caspase activation, % (concentration not given with the values); actives 0.066% (n = 330,000);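 active = over half of replicate activation scores above 10%, or exactly half above 10 with the replicate mean above 10; inconclusive = replicate mean below 10 yet half the replicates above 10; inactive = over half of replicates below 10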;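 also: wells of about 30 µL received 50 nL stock; many hits fall short of the cut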
ALR H2O2 inh = human ALR oxidase inhibition via reduced H2O2; purified ALR, DTT oxidation, H2O2 HRP-luminol luminescence; inhibition, % (test concentration not listed); actives 3.8% (n = 290,000); AID 485317;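 active = mean and each replicate at 75% or more; inconclusive = only one of the two met; inactive = neither met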;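 also: stock transfer was 7.5 nL into about 7.5 µL; 0% = neutral wells and 100% = wells with inactivated enzyme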
Target sequence (P55789 whole entry, looked up): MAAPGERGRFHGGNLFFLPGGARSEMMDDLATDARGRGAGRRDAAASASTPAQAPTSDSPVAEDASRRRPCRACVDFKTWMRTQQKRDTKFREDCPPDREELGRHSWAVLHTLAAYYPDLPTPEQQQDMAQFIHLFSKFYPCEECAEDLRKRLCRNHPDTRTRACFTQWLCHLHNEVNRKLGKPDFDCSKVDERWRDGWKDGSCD
T cruzi repl = blocks replication of Trypanosoma cruzi; actives 1.4% (n = 300,000); inhibition, % (test concentration not listed); T. cruzi beta-gal in NIH3T3, luminescence, 90 h;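 active = mean inhibition across valid replicates above about 55%, limit read from the data; inconclusive = mean below that limit but half or more replicates reach it; inactive = mean below it, under half of replicates reach it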;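 also: signal also drops with host cell toxicity which is not excluded here; 0% = plate median of DMSO wells and 100% = zero luminescence signal; higher percent means less beta-gal luminescence so fewer parasites; stock transfer was 50 nL into about 50 µL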
Beta2AR agonist = agonists of human beta-2 adrenergic receptor inducing internalization; Am2.2-beta2AR cells, FAP receptor internalization, flow cytometry; reference of the scale not given here; response, % (concentration not given with the values); actives 0.43% (n = 340,000); AID 504454;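 active = response above a set limit, near 3 SD of response in nonfluorescent compounds, cut at about 42% in these data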;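 also: stock transfer was 100 nL into about 11 µL; a reference agonist was the positive control; negative values mostly stem from fluorescent compounds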
Target sequence (P07550 whole entry, looked up): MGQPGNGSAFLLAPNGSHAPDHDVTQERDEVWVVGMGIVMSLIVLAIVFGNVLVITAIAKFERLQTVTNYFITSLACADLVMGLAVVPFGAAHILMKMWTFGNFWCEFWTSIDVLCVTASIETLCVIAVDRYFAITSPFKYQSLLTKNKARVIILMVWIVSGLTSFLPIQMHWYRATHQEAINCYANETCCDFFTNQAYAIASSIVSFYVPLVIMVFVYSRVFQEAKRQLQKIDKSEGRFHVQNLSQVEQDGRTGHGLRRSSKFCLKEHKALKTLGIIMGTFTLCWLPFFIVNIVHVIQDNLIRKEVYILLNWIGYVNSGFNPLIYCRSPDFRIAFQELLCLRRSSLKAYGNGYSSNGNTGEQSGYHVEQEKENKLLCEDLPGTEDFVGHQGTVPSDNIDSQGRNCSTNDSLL
LANA-H2A inh = blocks KSHV LANA binding to histone H2A/H2B | inhibition, % (no concentration beside the values) | cell-free LANA-H2A/H2B peptide, fluorescence polarization | Q9QR71 | actives 0.6% (n = 320,000); in the data active = inhibition mostly above about 10%, no sharp cut-off; inactive = mostly below about 6.7%;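 also: stock transfer was 7.5 nL into about 10 µL; 0% = median of vehicle wells and 100% = median of positive control wells; one replicate is shown; the record names a cut of 25% in any replicate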
Beta cell apopt = blocks beta cell apoptosis; INS-1E cytokine-induced death, ATP luminescence, 48 h; percent of positive-control rescue, neutral wells zero; protection from apoptosis, % (test concentration not listed); actives 0.8% (n = 300,000); AID 435005;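 active = all replicates at 75% or more, or half of them and the mean; inconclusive = half reach 75% but not the mean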;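 also: 0% = cytokine-treated negative control wells and 100% = positive control rescue; higher means more ATP so stronger rescue from cytokine killing; wells of about 40 µL received 100 nL stock; the first replicate is given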
Calb FLC = affects C. albicans growth with fluconazole. C. albicans CaCi-2 (fluconazole-resistant clinical isolate) + fluconazole, Alamar Blue growth, 48 h. growth inhibition, % (concentration not given with the values). actives 0.57% (n = 300,000). AID 1979;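 active = most replicates above 75%; inconclusive = exactly half above 75%; inactive = most below 75%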;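 also: all wells also contain fluconazole at 8 µg/ml as a sub-toxic cotreatment; 0% = median of DMSO wells and 100% = median of geldanamycin control wells; wells of about 8 µL received 7.5 nL stock; the first replicate is given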
rRNA inh HTS OD600 = second read-out of rRNA inh HTS, no call of its own (marks repeat the call); OD600 change, %; measured here: OD600 growth;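 optical density of the mix in the first replicate; 0 = DMSO median and -100 = no signal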
rRNA inh HTS RFP = recorded beside rRNA inh HTS, whose call it bears; RFP signal change, %; measured here: RFP humanized mutant strains;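 first replicate; 0 = DMSO median and -100 = no signal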
* hit, by the source's call; u = inconclusive; x = no result given. The list is partial. The share of hits here may be higher or lower than overall.

Start of the data: the first nine entries, ahead of the listing:
SMILES	rRNA inh HTS	rRNA inh HTS OD600	rRNA inh HTS RFP	A1 inh	ALR H2O2 inh	T cruzi repl	Beta2AR agonist	LANA-H2A inh	Beta cell apopt	Calb FLC
CN(C)CCCNC(=O)C(=O)Nc1cc2c3c(c1)CCC(=O)N3CCC2	-1	-3	1.5	0.1	1	6	7	0.7	9	-16
Cc1cc(/C=N\NC(=O)CC(=O)NC2CCCCC2)c(C)n1-c1ccc(Cl)cc1	-9	-11	1.5	-0.2	22	-1	4	-6.6	-6	-29
CCOC(=O)c1ccccc1NC(=O)Cn1cnc2c(oc3ccccc32)c1=O	x	x	x	-0.6	-15	1	-4	-0.3	-5	9
Cn1cc([N+](=O)[O-])c(C(=O)NNC(=O)c2ccc([N+](=O)[O-])cc2Cl)n1	6	7	0.1	0.8	-14	-4	1	0.5	0	11
CCc1noc(C)c1C(=O)NCCc1ccc(F)cc1	8	3	-2.4	-0.5	-3	-7	3	-1.4	-1	-3
COC(=O)Cn1c(O)c(N=NC(=O)CNC(=O)COc2cccc(C)c2)c2ccccc21	1	4	-3.1	-1.0	-7	1	5	-4.9	-2	5
NC(=O)c1sc2nc3c(cc2c1N)CCCCCC3	-13	-14	-2.9	-0.4	12	-9	6	-5.6	-4	u
COc1ccccc1C(=O)NNC(=O)c1ccccc1Br	-2	0	-1.9	0.2	-3	-10	-4	0.1	-3	4
CCOc1ccc(S(=O)(=O)N2CCc3cc(OC)c(OC)cc3C2)cc1	1	0	-3.1	0.4	-7	-4	-2	1.0	5	8

All compounds of this part, previewed entries included:
SMILES	rRNA inh HTS	rRNA inh HTS OD600	rRNA inh HTS RFP	A1 inh	ALR H2O2 inh	T cruzi repl	Beta2AR agonist	LANA-H2A inh	Beta cell apopt	Calb FLC
CN(C)CCCNC(=O)C(=O)Nc1cc2c3c(c1)CCC(=O)N3CCC2	-1	-3	1.5	0.1	1	6	7	0.7	9	-16
Cc1cc(/C=N\NC(=O)CC(=O)NC2CCCCC2)c(C)n1-c1ccc(Cl)cc1	-9	-11	1.5	-0.2	22	-1	4	-6.6	-6	-29
CCOC(=O)c1ccccc1NC(=O)Cn1cnc2c(oc3ccccc32)c1=O	x	x	x	-0.6	-15	1	-4	-0.3	-5	9
Cn1cc([N+](=O)[O-])c(C(=O)NNC(=O)c2ccc([N+](=O)[O-])cc2Cl)n1	6	7	0.1	0.8	-14	-4	1	0.5	0	11
CCc1noc(C)c1C(=O)NCCc1ccc(F)cc1	8	3	-2.4	-0.5	-3	-7	3	-1.4	-1	-3
COC(=O)Cn1c(O)c(N=NC(=O)CNC(=O)COc2cccc(C)c2)c2ccccc21	1	4	-3.1	-1.0	-7	1	5	-4.9	-2	5
NC(=O)c1sc2nc3c(cc2c1N)CCCCCC3	-13	-14	-2.9	-0.4	12	-9	6	-5.6	-4	u
COc1ccccc1C(=O)NNC(=O)c1ccccc1Br	-2	0	-1.9	0.2	-3	-10	-4	0.1	-3	4
CCOc1ccc(S(=O)(=O)N2CCc3cc(OC)c(OC)cc3C2)cc1	1	0	-3.1	0.4	-7	-4	-2	1.0	5	8
O=C(NNC(=O)C1CCN(Cc2cccc(F)c2)CC1)c1cccc(Cl)c1	x	x	x	1.6	-10	18	-6	7.7	0	6
O=C(CSc1nc2ncc(Cl)cc2[nH]1)NCC(=O)Nc1ccc(F)c(F)c1F	-5	-5	-1.2	0.0	x	5	-11	0.6	3	0
Cc1noc(C)c1C(=O)N1CCN(C(=O)c2sc3cc(Cl)ccc3c2Cl)CC1	x	x	x	-0.1	1	1	-12	-1.1	-8	20
O=C(Nc1ncc2c(n1)-c1ccccc1OC2)c1ccc(Cl)cc1	x	x	x	0.3	1	-16	-6	-0.8	1	u
O=C(NCc1ccccc1)c1ccc(COCC(F)(F)F)o1	-3	11	-1.0	0.6	-8	3	4	5.8	3	-24
COc1ccc2c(c1)cc1n2CCN=C1NN	x	x	x	-1.4	98*	6	13	-2.9	-3	-1
COc1ccc2cc3cc(C(=O)NCc4cccnc4)oc3nc2c1	-9	-5	-4.1	-1.0	-13	-22	-3	-4.1	8	2
Cc1ccc2nc(NC(=O)C3CCN(S(=O)(=O)c4cccs4)CC3)sc2c1	x	x	x	0.5	-12	45	1	4.4	31	39
CCC(CC)c1nc(C(N)=O)c2[nH]c(=O)n(-c3ccc(OC)c(OC)c3)c2n1	-12	-5	-2.5	-0.7	-9	-13	5	7.1	3	4
Cc1ccc(S(=O)(=O)C2CS(=O)(=O)CC2O)cc1 (configuration not stated)	x	x	x	-0.2	0	-16	-1	-7.7	-6	2
CC(=O)c1cc(C#N)c(SCc2ccccc2C#N)nc1C	x	x	x	-1.5	-4	6	-6	-2.1	3	4
Cn1nnnc1NCc1cccc(Cl)c1	7	12	2.7	0.5	-3	-17	1	5.2	-8	0
Fc1cccc(COc2ccccc2CNc2ccccc2)c1	x	x	x	-0.6	2	-12	-3	-1.7	1	9
Cc1ccc(-n2nc(C)c3c(C)c(CCC(=O)O)c(C)nc32)cc1C	-26*	-14*	-4.4*	0.2	8	-4	12	-2.2	-5	0
CCCc1cc(=O)[nH]c(SCC(=O)Nc2c(C)n(C)n(-c3ccccc3)c2=O)n1	11	16	-0.3	-0.7	-7	x	-4	0.4	-6	x
O=C1NC2(CCCCCC2)Cc2ccccc21	-7	-5	-3.2	-0.9	2	-9	4	-1.6	4	5
O=c1[nH]cnc2cc(-c3ccc(Br)cc3)sc12	2	5	-2.0	-5.8	0	-3	-26	-3.9	-3	2
Cc1nnc(N2C(=O)C(=O)/C(=C(/O)c3ccc4c(c3)CC(C)O4)C2c2ccccc2F)s1 (configuration not stated)	-6	-7	3.9	0.4	16	1	2	-0.3	-4	2
Cc1ccccc1-c1nc(CS(=O)CC(=O)NCc2ccccc2)c(C)o1 (configuration not stated)	-5	-4	-2.2	1.0	98*	42	1	-1.9	-5	-4
COc1ccc(/C=N/NC(=O)c2[nH]ncc2Br)c(OC)c1	x	x	x	-6.3	-2	3	-11	1.1	2	-3
Cc1cc(Br)c(NC(=O)CCl)c(Br)c1	17	9	-0.1	1.2	x	-47	-3	-2.5	-12	1
Cc1cc(Br)c(NC(=O)COn2nnc3ccc(S(C)(=O)=O)cc32)c(Br)c1	-5	6	1.1	2.5	3	9	-3	1.7	0	-8
CCOc1ccc(N(C(C)C(=O)NC(C)CC)S(C)(=O)=O)cc1 (configuration not stated)	x	x	x	0.1	2	-9	2	1.2	-1	1
O=C(O)c1ccc(NCc2cccc(Br)c2)cc1	x	x	x	2.7	-2	-4	-1	-1.9	0	-3
Cc1ccc(NC(=O)CC2S/C(=N/N=C/c3ccco3)NC2=O)cc1Cl (configuration not stated)	4	7	4.8	1.4	9	-7	-13	6.7	-9	2
Cc1ccc(NC(=O)CN(C)S(=O)(=O)c2cccc3cccnc23)cc1C	2	-9	-0.6	0.1	0	-2	0	1.6	1	2
Cn1nc(C(=O)NC2CCCCCC2)ccc1=O	3	6	-0.6	0.5	-1	-5	-9	-2.6	1	u
O=C(CCCn1nnnc1CN1CCOCC1)N1CCN(c2ccccc2F)CC1	x	x	x	0.2	4	-5	0	2.6	-5	-1
CCn1ncc(Cl)c1C(=O)NC(=S)Nc1ccccc1Br	x	x	x	-1.5	-7	-13	6	-5.3	x	-21
OCCCCCN=c1cc(-c2ccccc2)oc2ccc(Cl)cc12	x	x	x	0.1	0	-11	-2	7.7	13	21
COc1cc(/C=N/n2cnnc2)ccc1OCCOc1ccccc1	x	x	x	1.1	0	6	-3	0.1	1	-5
O=C(OCC(=O)N1CCc2ccccc21)[C@@H]1CCCN1S(=O)(=O)c1ccccc1F	-4	-1	9.7	0.6	2	x	3	-3.1	-8	x
Cn1c(=NC(=O)CSCC(=O)N2CCCCC2)sc2ccccc21	x	x	x	-1.3	-2	7	-5	1.8	-5	4
COc1ccc(C(=O)Nc2nc(N3C(=O)c4ccccc4C3=O)n(-c3ccccc3)n2)cc1	x	x	x	0.5	-1	1	12	-0.3	-6	1
COc1cc(/C=N/NC(N)=O)ccc1OC(=O)c1ccco1	7	-1	0.2	-0.5	29	-1	5	-2.1	0	14
CCCC(CCC)c1nc2ccncc2[nH]1	9	12	-2.6	0.1	-37	-5	0	3.1	1	-9
CCC(C)[C@H](NC(=O)NC(C)C)C(=O)O (some centres not stated)	x	x	x	0.5	-6	-15	-1	0.1	0	16
COc1ccc(C(=O)N2CCN(C3CCCCC3)CC2)c(OC)c1	x	x	x	0.4	0	8	3	1.0	3	-2
Cc1nc2c(sc3nc4c(cc32)COC(C)(C)C4)c(=O)n1CC(=O)NCc1ccco1	7	7	-7.0	-1.9	5	-24	3	3.3	0	5
COc1ccccc1C(=O)Nc1c(-c2ccccc2)nc2ccccn12	-4	0	2.1	2.0	4	-5	-6	-1.4	-38	11
CCOC(=O)N1CCc2c(sc(NC(=O)CN(CC)CC)c2C#N)C1	x	x	x	-0.2	-1	-3	-1	-1.8	0	47
COc1cc(O)c(C(CCN2CCOCC2)c2ccc(N(C)C)cc2)c(OC)c1 (configuration not stated)	4	16	8.3	-0.3	99*	-10	-9	0.8	1	-16
O=C(CSc1nc(C(F)(F)F)cc(=O)[nH]1)Nc1cccc2ccccc12	-13	-3	0.5	1.0	-16	-8	6	-2.1	x	11
Cc1ccc(S(=O)(=O)N2CCCOC2CNC(=O)C(=O)NC2CCCCC2)cc1 (configuration not stated)	19	18	1.3	-0.1	-2	6	-1	0.9	1	1
COc1cc(N)c(Cl)cc1C(=O)OCC(=O)Nc1ccc(N2CCOCC2)cc1	-5	-4	2.3	-0.6	7	x	-2	0.6	-1	x
COc1ccc(/C=C/C(=O)OCC(=O)NCCNC(=O)COC(=O)/C=C/c2ccc(OC)cc2)cc1	4	7	3.2	-0.1	-11	-11	-5	2.4	-16	-5
CC(C)(C)n1cn[nH]c1=S	x	x	x	0.7	16	-12	1	-0.8	x	-10
CS(=O)(=O)N1CCN(c2ccccc2NC(=O)c2cccnc2)CC1	x	x	x	0.4	-21	-21	5	-4.2	-1	u
COc1cc(C)c(Cl)cc1S(=O)(=O)N1CCCC1	1	-4	0.2	-1.0	-12	4	-9	-0.3	-5	6
CCN1CCc2c(OCC(=O)Nc3ccc(C)cc3)cccc2C1=O	7	16	2.8	-0.1	-2	-5	-7	-1.5	-4	8
Cc1cc(NC(=O)COC(=O)[C@@H](NS(=O)(=O)c2ccc(Br)cc2)C(C)C)no1	-2	4	4.3	-0.4	x	-16	-7	1.4	-3	111*
COc1ccc2nc(N3C(=O)CC(C(C)c4ccccc4)C3=O)sc2c1 (configuration not stated)	x	x	x	1.5	4	-12	5	-0.2	0	8
